Bioassay records deposited in PubChem by National Center for Advancing Translational Sciences (NCATS).
TSHR agonist – agonists of human thyroid stimulating hormone receptor. P16473. HEK293-CNG-TSHR cells (CNG channel as cAMP sensor), membrane potential dye, cAMP. Potency, µM (titrated, usually from 57.1 µM), for the others: top-dose activation, hits mostly activators. hit rate 0.48% among 73,000; active = well fitted activation curve of enough size with the parental cells flat; inconclusive = any curve in the parental cells; inactive = parental cells flat and receptor cells flat or falling; further: potency means the concentration at half of the fitted maximal effect; % of control where 0% means no effect; weak receptor curves with flat parental cells got no call and are not listed
Target sequence (P16473 whole entry, looked up): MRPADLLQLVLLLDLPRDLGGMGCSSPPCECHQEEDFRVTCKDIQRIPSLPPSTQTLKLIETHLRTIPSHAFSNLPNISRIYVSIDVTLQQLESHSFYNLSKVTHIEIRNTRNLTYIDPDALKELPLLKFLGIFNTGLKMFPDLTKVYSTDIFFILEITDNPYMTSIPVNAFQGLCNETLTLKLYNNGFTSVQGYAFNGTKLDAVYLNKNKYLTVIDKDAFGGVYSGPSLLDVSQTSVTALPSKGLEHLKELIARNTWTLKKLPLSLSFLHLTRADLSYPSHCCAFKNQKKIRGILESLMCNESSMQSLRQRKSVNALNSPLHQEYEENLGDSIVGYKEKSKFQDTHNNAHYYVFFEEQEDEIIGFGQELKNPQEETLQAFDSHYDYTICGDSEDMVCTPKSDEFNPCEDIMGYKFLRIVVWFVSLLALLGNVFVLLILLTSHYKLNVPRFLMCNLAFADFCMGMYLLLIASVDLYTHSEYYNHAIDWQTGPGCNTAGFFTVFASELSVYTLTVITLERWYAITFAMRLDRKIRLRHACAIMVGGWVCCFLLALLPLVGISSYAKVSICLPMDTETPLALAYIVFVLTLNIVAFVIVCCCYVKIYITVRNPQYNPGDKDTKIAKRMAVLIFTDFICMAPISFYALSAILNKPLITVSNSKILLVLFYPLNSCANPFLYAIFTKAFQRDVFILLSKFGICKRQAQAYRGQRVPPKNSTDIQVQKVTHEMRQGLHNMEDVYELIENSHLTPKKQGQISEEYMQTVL
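HEK 293 cells stably expressing TSHR and a cAMP-gated CNG channel; parental CNG-only cells as counterscreen. Cells preloaded 60 min with membrane potential dye plus 100 uM RO 20-1724, then compound 30 min; fluorescence read at 590 nm.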
Resorufin fluor – compound fluoresces in the resorufin spectral region | AID 588 | max dye-equivalent concentration, M | Compound fluorescence, resorufin region 547/598 nm, buffer; hits give high values | hit rate 0.04% among 59,000; active = above 10 nM dye equivalent; inconclusive = 1 to 10 nM; inactive = 1 nM or less; a few of its hits are not listed in these tables; further: highest value over a series up to 38 µM
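Compounds in 100 mM Tris buffer, pH 8.0, incubated 15 min at room temperature, then read with 547 nm excitation and 598 nm emission filters. Fluorescence was converted to dye-equivalent concentration using an on-plate six-point resorufin standard curve.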
A488 fluor – compound autofluorescence in A488 spectral region. compound autofluorescence, A488 spectral region, dye equivalency; hits give high values. max dye equivalency, M. hit rate 0.1% among 59,000; active = above 10 nM dye equivalent; inconclusive = 1 to 10 nM; inactive = 1 nM or less; about half of its hits are not listed in these tables;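 further: highest value over a series up to 38 µM; compound alone in buffer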
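Read-out: relative fluorescence at 480/540 nm, expressed as Alexa 488 dye-equivalent concentration from a six-point A488 standard included per plate. Conditions: 100 mM Tris, pH 8.0; 15 min incubation, room temperature.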
A647 autofl – compound fluoresces in the A647 spectral region; Compound fluorescence, A647 channel (570/671 nm), Tris buffer; max dye-equivalent concentration, M; 59,000 tested, under 10 active; AID 592; active means above 1 µM dye equivalent; inconclusive means 0.1 to 1 µM; inactive means 0.1 µM or less;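 further: values scaled relative to a standard on each plate; highest value over a series up to 38 µM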
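Spectral profiling of library compounds in pH 8.0 Tris: 15 min room-temperature incubation, single ex/em pair (570/671 nm), response normalized to Alexa 647 equivalents.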
AID923 – qHTS Assay for Allosteric/Competitive Inhibitors of Caspase-1: Spectroscopic Profiling in AFC Spectral Region; compound fluorescence, AFC spectral region (405/520 nm); almost no hit is shown here; Potency, µM (titrated, usually from 57.5 µM), inactives show at the top dose fluorescence increase, hits mostly activators; hit rate 1.1% among 75,000; AID 923, 2007; active means well fitted activation curve with a large enough effect; inconclusive means small, poorly fitted or top-dose-only effect;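 further: potency means the concentration at half of the fitted maximal effect; 0% is about no effect; scaled to a free AFC standard on each plate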
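Compound autofluorescence profiled at 405 nm ex/520 nm em during kinetic caspase 1 run (50 nM enzyme, 5 uM Ac-WEHD-AFC, HEPES pH 7.5, 10 mM DTT). Titration up to 57 uM; baseline from regression intercept, normalized to AFC standard curve.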
* hit, by the source's call; i = inactive; ? = inconclusive; . = not tested or not shown; & = joins results of further samples; [ ] = remark or other dose. The list is partial; count on the stated rates, not on these rows.

SMILES	TSHR agonist	Resorufin fluor	A488 fluor	A647 autofl	AID923
O=C(O)[C@H]1CCCN(CCC=C(c2ccccc2)c2ccccc2)C1	2%	i	i	7.8e-09	-3.1%&-0.2%
COCCNC(=O)NC(=O)COC(=O)Cc1ccc2c(c1)OCCO2	7%	i	i	4.4e-09	0.2%
CCn1cc(C(=O)OCC(=O)Nc2ccc(S(=O)(=O)N3CCCC3)cc2)c(=O)c2ccc(C)nc21	26%	i	i	1e-09	2.2%
Cn1c(=S)c2[nH]c(SCCN3C(=O)c4ccccc4C3=O)nc2n(C)c1=O	5%[11.4 µM]	i	i	2.9e-09	3.1%[11.5 µM]
Cc1[nH]c(=O)c(C#N)c(C)c1Br	10%[11.4 µM]	i	i	2.2e-09	0.8%
O=C(Nc1nnc(CC(=O)N2CCOCC2)s1)c1cccs1	-6%	i	i	4.3e-09	1.0%
CCOc1ccccc1N(CC(=O)NC(C)(C)C)C(=O)Cn1nnc(-c2ccc(C)o2)n1	4%	i	i	3.2e-08	1.3%
Cc1cccc(CNc2ccnc(-c3ccccc3CN(C)C)n2)c1	?	i	i	8.2e-09	-2.7%
O=C(Nc1cccc(F)c1)N1CCCC2(CCN(C(=O)c3csnn3)CC2)C1	4%	i	i	1.3e-08	-0.3%
COC(=O)c1ccc(Cn2cnc3ccccc3c2=O)cc1	4%	i	i	4.1e-08	-0.9%
CC(Cc1ccc(O)c(O)c1)C(C)Cc1ccc(O)c(O)c1 (stereo not drawn)	.	i	i	3.6e-08	-1.2%
Cc1ccc(N(CC(=O)Nc2cccc(C)c2)S(=O)(=O)c2cccc3nonc23)cc1	22%	i	i	2.2e-08	2.5%
CCC(C)(C(=O)NC1CCCC1)N(C(=O)c1cnccn1)c1ccccc1 (stereo not drawn)	24%	.	.	.	-0.7%
CN(C)CCNC(=O)Cn1nc(C(F)F)cc1C1CC1	-16%	i	i	1e-09	-2.0%
COc1cccc(-c2cc(C(=O)Nc3ccccc3SC)no2)c1	-5%[11.4 µM]	i	i	1.4e-08	0.3%
CCOc1ccc(NC(=O)CN(C)CC(=O)Nc2ccccc2C#N)cc1OCC	0%	i	i	3.6e-08	-0.3%
Cc1nc(-n2cc(F)c(=O)[nH]c2=O)c2nc(C)oc2n1	4%	i	i	8.6e-09	-0.6%
COc1ccc(CCNC(=O)C2CCN(S(=O)(=O)N3CC(C)CC(C)C3)CC2)cc1OC (stereo not drawn)	?	i	i	1e-09	-0.7%
CC1(C)CC(=O)C(C=NC2CCCCC2)=C(O)C1	-5%	.	.	.	-0.2%
O=C(C1CC1(c1ccccc1)c1ccccc1)N1CCOCC1 (stereo not drawn)	.	i	i	4.9e-09	.
CCC(C)(C(=O)NC1CCCCC1)N(Cc1ccco1)C(=O)c1cnccn1 (stereo not drawn)	?	i	i	2.8e-08	-1.6%
Cc1nc2cnc(N3CCOCC3)nc2n(Cc2ccc(F)cc2)c1=O	14%	i	i	1e-09	4.9%
O=C(NCC1CCCCN1)c1cc(OCC(F)(F)F)ccc1OCC(F)(F)F (stereo not drawn)	.	i	i	4.4e-08	.
CCC(c1nnnn1CCc1ccccc1)N(Cc1ccco1)Cc1cc2cccc(C)c2[nH]c1=O (stereo not drawn)	?	i	i	1.5e-09	1.4%
C=CCOc1cccc(C2/C(=C(\O)c3ccc(F)cc3)C(=O)C(=O)N2CCN(C)C)c1 (stereo not drawn)	2%	i	i	2.4e-08	-0.3%
SMILES	TSHR agonist	Resorufin fluor	A488 fluor	A647 autofl	AID923
Cc1ccc(CNc2ncc(-c3ccc4c(c3)OCO4)n2C)cc1	?	i	i	6.5e-08	-1.8%
O=C(c1ccc(F)cc1)N1CCC(O)(c2cccnc2)CC1	-2%	i	i	7.1e-09	-0.8%
O=C(CCN1C(=O)C2C3C=CC(C3)C2C1=O)Nc1ccccn1 (stereo not drawn)	-2%	i	i	1e-08	0.5%
Cc1noc(C)c1COC(=O)Cn1c(C)nc2ccccc21	.	i	i	1.8e-08	-3.1%
O=C(Nn1c(C2CC2)nc2ccccc2c1=O)c1ccco1	3%	i	i	1.8e-08	-0.6%
Cc1cc(N2CCCCC2)n2ncc(-c3ccccc3)c2n1	2%[11.4 µM]	i	i	6.3e-09	13%
COc1ccc(CCNC(=O)Cn2nnc(-c3ccc(N4CCOCC4)cc3)n2)cc1OC	-6%	i	i	1.6e-08	1.4%
CS(=O)(=O)N1CCC2(CCN(C(c3ccccc3)c3ccccc3)CC2)CC1	5%	i	i	1e-09	-1.6%
Cc1ccc(C2NC(=O)c3ccccc3N2)s1 (stereo not drawn)	-1%[11.4 µM]	i	i	2.4e-09	2.4%
Cn1c(=O)n(CC(=O)Nc2ccc(F)cc2)c2ccccc21	2%	i	i	5.6e-09	0.0%
O=C(c1ccccc1)c1nc2ccccc2[nH]c1=O	16%	i	i	1e-09	1.9%
c1cncc(-c2nc(-c3cccs3)cs2)c1	5%	i	i	4.6e-09	-0.7%
CCN(CCCNC(=O)CC(C(=O)N1CCc2ccccc21)n1ccnc1)c1cccc(C)c1 (stereo not drawn)	4%	i	i	4.9e-09	-2.4%
COc1cccc(Cn2c(=O)c(C)nc3cnc(OC)nc32)c1	?	i	i	1.4e-08	2.3%
COc1ccc(N2CCN(C(=O)CN(c3ccc(Br)cc3)S(C)(=O)=O)CC2)cc1	-2%[11.4 µM]	.	.	.	0.6%
O=C(CCn1c(=O)oc2ccccc21)NC1=NCCS1	21%	i	i	1e-09	-1.9%
COc1ccc(NC(C)c2cc(Cl)ccc2O)cc1 (stereo not drawn)	-12%	i	i	1e-09	0.5%
Cc1cc(Oc2ccccc2)nc(-c2ccccc2O)n1	?	i	i	3.6e-08	-0.1%
CCN(CC)C(=O)N1c2ccccc2CC(N(CC)CC)c2ccccc21 (stereo not drawn)	?	i	i	1.8e-08	-0.3%
O=S(=O)(c1ccc(Br)s1)N1CCN(c2ccccn2)CC1	15%	i	i	3e-08	-1.6%
O=C(c1cnccn1)N1CCC2(CCCN(Cc3ccccc3)C2)CC1	9%	i	i	2e-08	-0.4%
O=C(COc1cccc(-n2cnnn2)c1)NCCC1=CCCCC1	2%	i	i	6.9e-09	-0.1%
O=S(=O)(NC1CCCC1)c1ccc(Br)s1	8%	i	i	7.2e-09	-0.4%
Cc1nc2sc(C(c3ccco3)N3CCC(Cc4ccccc4)CC3)c(O)n2n1 (stereo not drawn)	13%	.	.	.	-1.2%
CCOc1ccccc1-n1c(SCC(=O)Nc2nccs2)nnc1-c1ccoc1C	?	i	i	6.1e-09	1.5%
SMILES	TSHR agonist	Resorufin fluor	A488 fluor	A647 autofl	AID923
C/C=C(\C)CN1CCN(c2ccccc2F)CC1	8%	i	i	2.8e-08	0.9%
CC1CCc2c(C(=O)NCCN3CCOCC3)csc2C1 (stereo not drawn)	?	i	i	2e-08	-0.3%
O=C(CSCCO)Nc1nccs1	0%	i	i	9.4e-09	-3.0%
COc1cc(-c2ccccc2)nc(N)n1	4%[11.4 µM]	.	.	.	2.9%
CCCCN(CCCNC(=O)C1CCN(S(=O)(=O)N2CCOCC2)CC1)c1ccccc1	9%	i	i	5.7e-09	0.0%
CC1CN(C(=O)CCn2c(=O)oc3ccccc32)CC(C)O1 (stereo not drawn)	5%	i	i	1e-09	-3.8%
Cn1c(C(=O)NCc2cccnc2)cc2sccc21	-3%	i	i	6.5e-09	0.0%
CCN(CCCNC(=O)C1CCN(S(=O)(=O)N2CCOCC2)CC1)c1cccc(C)c1	15%	i	i	1e-09	0.6%
FC(F)(F)c1cc(-c2ccco2)nc(NCc2cccs2)n1	?	i	i	2.7e-08	1.9%
Cc1cccc(NC(=O)CCN2C(=O)c3ccccc3C2=O)n1	-5%	i	i	8.3e-09	-1.2%
O=C(NC1(C(F)(F)F)N=C2SCCN2C1=O)c1ccco1 (stereo not drawn)	1%[11.4 µM]	i	i	2.9e-08	0.4%
COCCCNC(=O)c1ccccc1Oc1ccccc1	10%	.	.	.	-2.0%
Cc1cc(NC(=O)CN2CCN(Cc3ccccc3)CC2)nc2c1c(=O)oc1ccccc12	-1%	.	.	.	-0.6%
CCOc1cc(C(=O)Nc2ccccc2N2CCN(S(C)(=O)=O)CC2)cc(OCC)c1OCC	5%	i	i	2.9e-08	1.6%
O=C(CSc1n[nH]c(-c2ccccc2)n1)NC(=O)NCc1ccco1	-3%	i	i	1e-09	-0.7%
CCS(=O)(=O)N1CCCC(c2nc(-c3cccc(OC)c3)no2)C1 (stereo not drawn)	1%	i	i	1.8e-09	0.6%
c1cnc(N2CCN(c3ncnc4c3oc3ccccc34)CC2)nc1	.	i	i	5.9e-09	1.2%
CCOC(=O)N1CCN(c2c(NCCN3CCCCC3CC)c(=O)c2=O)CC1 (stereo not drawn)	-15%	.	.	.	1.5%
Cc1noc(C)c1C(=O)Nc1ccc2c(c1)CCC2	7%	i	i	1.6e-09	-1.5%
COCC(=O)NCCc1nc2ccccc2[nH]1	-2%	.	.	.	-0.5%
CCOC(=O)Cc1nnc(NC(=O)c2ccccc2OC)s1	?	i	i	8.4e-09	1.3%
Cc1nc2scc(-c3ccccc3)c2c(=O)o1	-1%	.	.	.	0.4%
Cc1cccc(CCNC(=O)C2CCCN(S(=O)(=O)c3cnc[nH]3)C2)c1 (stereo not drawn)	-16%	.	.	.	0.9%
Cc1cc(F)c(F)c(C(=O)N2CCN(C)CC2)c1Cl	4%	.	.	.	-0.3%
CN(Cc1cnn(C)c1)C(=O)c1cc2ccccc2oc1=O	-4%	i	i	5.1e-09	0.6%
SMILES	TSHR agonist	Resorufin fluor	A488 fluor	A647 autofl	AID923
CCO	?	.	.	.	0.1%
COc1ccc(C2C(C(=O)NCCN(C)C)c3ccccc3C(=O)N2C)cc1OC (stereo not drawn)	-2%	i	i	1e-09	11%
Cc1ccc2nsnc2c1S(=O)(=O)NCc1cccnc1	1%	i	i	1e-09	-0.3%
COc1ccc(CCNc2oc(COc3ccccc3F)nc2C#N)cc1OC	?	i	i	5.2e-09	2.8%
CCN=C1SC(CC(=O)Nc2sc(C)c(C)c2C(=O)OC)C(=O)N1CC (stereo not drawn)	11%	i	i	1.6e-08	1.0%
O=C1C(C=NCc2cccnc2)=C(O)c2ccccc21	-2%[11.4 µM]	.	.	.	2.3%
CC(=O)Nc1ccc(C(=O)n2nc(C)cc2C)cc1	-4%	i	i	9.4e-09	-1.2%
O=C(CSc1nnnn1-c1ccccc1Cl)Nc1ccc2c(c1)OCCO2	52%	.	.	.	0.7%
N/C(=N\O)c1cn([C@@H]2O[C@@H](CO)[C@H](O)[C@@H]2O)c2ncnc(NO)c12	-2%[11.4 µM]	i	i	2.2e-09	-1.1%[11.5 µM]

Compound profiles, as listed above. Screens in order: TSHR agonist	Resorufin fluor	A488 fluor	A647 autofl	AID923
Cc1ccc2nsnc2c1S(=O)(=O)NCc1cccnc1 across the screens: 1%	i	i	1e-09	-0.3%
COc1ccc(C2C(C(=O)NCCN(C)C)c3ccccc3C(=O)N2C)cc1OC (stereo not drawn) across the screens: -2%	i	i	1e-09	11%

6 neighbouring records out of the list so far, for reference:
SMILES	TSHR agonist	Resorufin fluor	A488 fluor	A647 autofl	AID923
CCO	?	.	.	.	0.1%
COc1ccc(C2C(C(=O)NCCN(C)C)c3ccccc3C(=O)N2C)cc1OC (stereo not drawn)	-2%	i	i	1e-09	11%
Cc1ccc2nsnc2c1S(=O)(=O)NCc1cccnc1	1%	i	i	1e-09	-0.3%
COc1ccc(CCNc2oc(COc3ccccc3F)nc2C#N)cc1OC	?	i	i	5.2e-09	2.8%
CCN=C1SC(CC(=O)Nc2sc(C)c(C)c2C(=O)OC)C(=O)N1CC (stereo not drawn)	11%	i	i	1.6e-08	1.0%
O=C1C(C=NCc2cccnc2)=C(O)c2ccccc21	-2%[11.4 µM]	.	.	.	2.3%
